# KCNQ2 inh = KCNQ2 potassium channel inhibitors, primary screen, cell-based, CHO-K1, FluxOR thallium flux, B-score (AID 2156). O88943. 20 min; stronger effect = lower value; only compounds with negative scores are shown here; some inactives read as strong as hits. B-score at 10 µM. 310,000 compounds, 1.1% hits;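 active = fluorescence ratio B-score at most minus 3 library SDs, with starting brightness B-score within 2 library SDs, cut at about -5.5 in these data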
# Target sequence (O88943 whole entry, looked up): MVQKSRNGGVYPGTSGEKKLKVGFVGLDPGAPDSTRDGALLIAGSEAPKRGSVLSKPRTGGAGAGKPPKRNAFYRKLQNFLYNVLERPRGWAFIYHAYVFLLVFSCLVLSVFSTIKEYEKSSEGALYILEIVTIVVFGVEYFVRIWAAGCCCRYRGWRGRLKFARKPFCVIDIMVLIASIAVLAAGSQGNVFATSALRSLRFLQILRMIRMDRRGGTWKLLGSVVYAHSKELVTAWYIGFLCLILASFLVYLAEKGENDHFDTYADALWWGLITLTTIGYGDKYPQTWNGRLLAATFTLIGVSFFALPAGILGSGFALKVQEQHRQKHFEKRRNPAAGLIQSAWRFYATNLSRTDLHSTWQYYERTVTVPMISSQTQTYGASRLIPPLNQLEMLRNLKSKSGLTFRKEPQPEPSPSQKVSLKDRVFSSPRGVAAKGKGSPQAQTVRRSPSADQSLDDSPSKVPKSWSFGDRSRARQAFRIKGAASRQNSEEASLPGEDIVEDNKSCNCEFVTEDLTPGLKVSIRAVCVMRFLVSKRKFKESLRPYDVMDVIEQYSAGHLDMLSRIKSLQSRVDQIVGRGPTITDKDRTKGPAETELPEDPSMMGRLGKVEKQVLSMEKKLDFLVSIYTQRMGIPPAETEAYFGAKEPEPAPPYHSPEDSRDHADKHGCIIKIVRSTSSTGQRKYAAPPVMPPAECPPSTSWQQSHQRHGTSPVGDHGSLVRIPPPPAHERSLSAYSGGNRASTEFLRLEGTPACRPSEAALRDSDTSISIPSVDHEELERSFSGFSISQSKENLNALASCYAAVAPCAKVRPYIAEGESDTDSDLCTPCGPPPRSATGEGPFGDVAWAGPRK
# KCNQ2 inh baseline = also measured in KCNQ2 inh; calls as there; B-score; measured here: initial fluorescence intensity artifact check;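 brightness before thallium and not channel activity; 0 = typical well and far values either way flag optical interference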
# * hit, by the source's call; i = inactive. Not all compounds are listed; rates above refer to the full screens.
KCNQ2 inh baseline,KCNQ2 inh,SMILES
-1.37,i,CCCCc1c(C)nc2c(OC)cccc2c1SCC(=O)O
0.73,i,CCOc1ccc(CN2CCNC(=O)C2CC(=O)NCC2CCOCC2)cc1 (stereo not drawn)
-0.96,i,CCOC(=O)N1CCN(C(=O)c2cc(Cl)c(Cl)cc2C(=O)O)CC1
0.34,i,O=C1NC(c2ccccc2)(C(F)(F)F)SC2=CCCCCN12 (stereo not drawn)
-0.12,i,COc1ccc(S(=O)(=O)N2CCc3ccccc3C2)cc1
1.49,i,COc1ccc(NC(=O)c2cc(Br)c(Br)s2)cn1
-0.53,i,CCOC(=O)CNc1c(-c2ccc(O)cc2)nc2ccccn12
1.91,i,COc1ccccc1N1C(=O)C2C(C(=O)c3ccccc3)=NN(c3ccccc3OC)C2C1=O (stereo not drawn)
0.44,i,CCN1CCN(c2nc3c(C)cccn3c(=O)c2/C=C(\C#N)S(=O)(=O)c2ccc(Cl)cc2)CC1
1.4,i,CCCCn1c(N)c(N(CCOC)C(=O)COC(=O)Cc2cccc(OC)c2)c(=O)[nH]c1=O
0.32,i,CCc1ccc(N2CC(C(=O)NC3CC3)CC2=O)cc1 (stereo not drawn)
0.21,i,NC(CSS(=O)(=O)O)=NCCC12CC3CC(CC(O)(C3)C1)C2
1.03,i,Cn1c(Cc2ccccc2)nnc1SCC(=O)N1CCCCC1
-1.08,i,COc1ccc(N(C(=O)C2COc3ccccc3O2)C(C(=O)NC2CCCCC2)c2ccccc2)cc1OC (stereo not drawn)
0.03,i,Cc1ccc(-c2c[n+](CC(=O)c3ccc(Br)cc3)c3n2CCCCC3)cc1
-0.07,i,CNC(=O)CN1C(=O)NC2(CCc3ccccc3C2)C1=O (stereo not drawn)
-1.43,i,Cc1ccc(OCC(=O)Nc2ccccc2-c2ccccc2)cc1
1.19,i,COc1ccc(Cl)cc1C(=O)Nc1nc(C)cc(C)n1
-0.48,i,O=C(c1ccc2c(c1)OCO2)N(c1ccccc1)C1C=CS(=O)(=O)C1 (stereo not drawn)
0.65,i,CCOC(=O)C1C(=O)OC2(CCCCC2)C1C(=O)OCC (stereo not drawn)
-3.17,i,Cc1ccc(OCC(=O)NCCN2CCCC2)cc1
-0.22,i,CC(/C=C/c1ccccc1)=N\NC(N)=S
0.5,i,O=S(=O)(CC(O)COc1ccc(Br)cc1)c1ccccc1 (stereo not drawn)
-1.8,i,COc1ccc(S(=O)(=O)N(C)CC(=O)NCc2ccccc2)cc1OC
2.16,i,Cc1ccccc1SCC(=O)NCCCn1ccnc1
-0.96,i,Cc1n[nH]c(=S)c2nn(-c3ccccc3)c(C)c12
-2.24,i,C/C(=N\NC(=O)c1n[nH]c2c1CCC2)c1cccs1
-0.1,i,Cc1ccc(NC(=O)C2(S(=O)(=O)c3ccc(Cl)cc3)CC2)cc1
-0.35,i,COc1ccc(C(CNC(=O)C2CCN(S(=O)(=O)c3ccc(F)cc3)CC2)N(C)C)cc1 (stereo not drawn)
0.88,i,CCN1CCN(S(=O)(=O)c2ccc(Cl)c(C(=O)NC(C)c3ccccc3Cl)c2)CC1 (stereo not drawn)
-1.15*,-7.58*,CN(C)CCNC(=O)c1cc2c(s1)-c1ccc(Cl)cc1SC2
1.24,i,Cc1ccccc1CSCCNC(=S)Nc1ccccc1
0.27,i,CCN(CC)CCCNc1nnc(C)c(=O)[nH]1
0.32,i,Cc1cccc(NS(=O)(=O)c2ccc(C(=O)N3CCN(c4ccccc4O)CC3)cc2)c1C
-0.06,i,Cn1nc(C(F)(F)F)c(-c2ccc(F)cc2)c1NC(=O)Nc1ccc(F)cc1
0.12,i,CC1=NN(c2ccccc2)C(=O)/C1=C\c1cn(-c2ccccc2)nc1C
-0.8,i,COc1ccc(S(=O)(=O)NCCCCNS(=O)(=O)c2ccc(OC)cc2)cc1
0.3,i,CC(OC(=O)CC1CCCCC1)C(=O)Nc1cccc(C#N)c1 (stereo not drawn)
0.61,i,CCOc1cc(/C=N/NC(=O)C2CCCC2)ccc1O
0.58*,-6.64*,Cc1ccc(N2C(=O)N(CC(=O)NCc3ccccc3Cl)C(=O)C2C)cc1 (stereo not drawn)

# Quoted at random: three compounds from above.
KCNQ2 inh baseline,KCNQ2 inh,SMILES
-3.17,i,Cc1ccc(OCC(=O)NCCN2CCCC2)cc1
-0.8,i,COc1ccc(S(=O)(=O)NCCCCNS(=O)(=O)c2ccc(OC)cc2)cc1
2.16,i,Cc1ccccc1SCC(=O)NCCCn1ccnc1

# Further entries:
KCNQ2 inh baseline,KCNQ2 inh,SMILES
-1.95*,-5.62*,CC(C)(C)NC(=O)c1cc(-c2ccc3c(c2)OCO3)nc2ccccc12
1.81,i,Cc1ccc(S(=O)(=O)NC2CCCC2)cc1C
0.62,i,CCn1c(=O)c(C(=O)NC(C)c2ccccc2)c(O)c2ccccc21 (stereo not drawn)
-0.72,i,Nc1nnnn1/N=C/c1ccccc1C(F)(F)F
3.88,i,COc1ccc(/C=C2\Oc3cc(OCC(=O)N4CCC[C@H]4C(=O)O)ccc3C2=O)cc1OC
0.64,i,Oc1ccc(-c2nccc(-c3ccc(F)cc3)n2)cc1
0.79,i,Cc1ccccc1N1CCN(C(=S)c2ccccc2)CC1
-1.22,i,COc1ccc(NC(=O)CN2CCc3ccccc3C2)c(OC)c1
0.04,i,Cc1ccc2[nH]c3c(c2c1)SC(C)(C)CC3=O
-0.76,i,COc1cc(-c2nnc(NC(=O)c3ccco3)o2)cc(OC)c1OC
-1.62,i,NC(=O)NC(=O)COC(=O)c1ccc2noc(-c3ccccc3)c2c1
0.37,i,O=C(c1sc2ccccc2c1Cl)N1CCN(c2ncccn2)CC1
2.25,i,COCCNCCCCSc1ccc(Cl)cc1
0.04,i,CN(c1ccc(C(=O)N2CCN(Cc3ccccc3)CC2)cc1)S(=O)(=O)c1ccc(Cl)cc1
-0.44,i,Cc1ccc(NC(=O)Cn2ncn3c(cc4ccccc43)c2=O)c(C)c1
-1.96,i,CC(C)(C)OC(=O)NCCCCCc1nnc(SCC(=O)Nc2cccc(Cl)c2)o1
-0.05,i,Cc1ccc(SCc2cc(=O)[nH]c(/N=C(\N)Nc3cccc4ccccc34)n2)cc1
2.17,i,COc1cc(C2C3=C(CCCC3=O)Nc3[nH]n(-c4ccccc4)c(=O)c32)cc(OC)c1OC (stereo not drawn)
-0.35,i,COc1ccc(C(=O)Nc2cc(C)nn2-c2nc3ccccc3[nH]2)c(OC)c1
-1.37,i,CC12C(=O)N(c3ccccc3)C(=O)C1C(c1ccccc1)N1CCCN12 (stereo not drawn)
-0.14,i,Cc1ccc2cc(CN(C(=O)C3CCCO3)C3CCCCC3)c(=O)[nH]c2c1 (stereo not drawn)
-0.35,i,C#CCOc1ccc(/C=C2/C(=O)N(c3cccc(C(=O)O)c3)N=C2C)cc1OC
0.4,i,C=CCn1c(SCc2cc(=O)n3ccsc3n2)nc2scc(C3CC3)c2c1=O
0.63,i,O=C(O)CSc1nc(SCc2ccccc2Cl)nc2c1CCCC2
0.27,i,O=C(O)CCCCCN1C(=O)C2CCCCC2C1=O (stereo not drawn)
2.51,i,O=C(NCCN1CCOCC1)/C(=C\c1ccc(F)cc1)NC(=O)c1ccccc1
-0.75,i,Cc1ccc(C)n1/N=C1/NC(=O)CS1
1.2,i,O=C(NCC1CCCCC1)C1(CC2CC(c3cccc(Br)c3)=NO2)CCNCC1 (stereo not drawn)
1.98,i,COc1cc2c(cc1OC)CN(CC(=O)NC(=O)NC(C)(C)C)CC2
0.46,i,Cc1cc(C)cc(NC(=O)Cn2nnc(C(=O)NCc3ccco3)c2N)c1
0.78,i,Cc1ccc(C)c(NC(=O)CCN2CCN(CCO)CC2)c1
6.56,i,Clc1ccc(OCCn2ccnc2)c2ccccc12
1.64,i,CCOc1ccc(/C=C2\SC(=S)N(CC(=O)N(CCO)C(C)(C)C)C2=O)cc1
1.73,i,COc1ccc(CN(C(=O)c2snc(C(N)=O)c2N)C(C(=O)NC2CCCC2)c2cc(OC)ccc2OC)cc1 (stereo not drawn)
-1.13,i,Cc1ccc(C(=O)N/C(=C/c2ccc(Cl)cc2)C(=O)N2CCOCC2)cc1
1.86,i,Cc1ccc(-c2nc(NCc3ccco3)c3ccccc3n2)cc1
0.44,i,CCN(CC)C(=O)CSc1nnc(-c2ccccc2)c(-c2ccccc2)n1
0.06,i,NC1=NC[C@H](Cc2ccc(O)cc2)N1CC1CCCCC1
0.08,i,Cn1nnc(NC(=S)NC(=O)c2cc(Cl)ccc2Cl)n1
0.86,i,Cc1cc(NC(=O)C(C)SCC(=O)OCc2c(Cl)cccc2Cl)no1 (stereo not drawn)

# Some of the entries above, reformatted:
# Every second line gives: KCNQ2 inh baseline | KCNQ2 inh
- CCOc1ccc(CN2CCNC(=O)C2CC(=O)NCC2CCOCC2)cc1 (stereo not drawn)
→ 0.73 | i
- CCOC(=O)N1CCN(C(=O)c2cc(Cl)c(Cl)cc2C(=O)O)CC1
→ -0.96 | i
- O=C1NC(c2ccccc2)(C(F)(F)F)SC2=CCCCCN12 (stereo not drawn)
→ 0.34 | i

# Arranged by molar mass (smallest number first): 3 of the compounds above
KCNQ2 inh baseline,KCNQ2 inh,SMILES
-0.75,i,Cc1ccc(C)n1/N=C1/NC(=O)CS1
0.27,i,O=C(O)CCCCCN1C(=O)C2CCCCC2C1=O (stereo not drawn)
-0.35,i,C#CCOc1ccc(/C=C2/C(=O)N(c3cccc(C(=O)O)c3)N=C2C)cc1OC

# Further entries follow.
KCNQ2 inh baseline,KCNQ2 inh,SMILES
-1.21,i,COc1ccc(N2CCN(C(=O)COC(=O)c3ccc(C)o3)CC2)cc1
2.28,i,O=C(NCc1ccc(F)cc1)C(Cc1ccccc1)n1cccc1 (stereo not drawn)
0.82,i,Cc1ccc2cc(CN(Cc3ccco3)C(=S)NCC3CCCO3)c(=O)[nH]c2c1C (stereo not drawn)
-0.63,i,O=C(CSc1nnc(CNC(=O)c2ccccc2)o1)NCc1ccc2c(c1)OCO2
0.34,i,Cc1sc2ncnc(N3CCC(C)CC3)c2c1C
1.74,i,CN(C)c1nc(F)c(F)c(S(=O)(=O)c2ccccc2)c1F
-0.02,i,C[C@H](NC(=O)[C@H]1N2C(=O)c3ccccc3C2SC1(C)C)C(=O)N1CCC[C@H]1C(=O)O (stereo partly drawn)
-1.69,i,COCCNC(=O)Cn1cnc2c1c(=O)n(C)c(=O)n2C
-0.81,i,CCC(O)CNc1nc(-n2nc(C)cc2C)nc2sc3c(c12)CC(C)(C)OC3 (stereo not drawn)
-0.87,i,COc1ccc(/C=C2\SC(=S)N(CCC(=O)Nc3cccc(C(=O)O)c3)C2=O)cc1OC
1.2,i,Cc1ccc2nc(C)cc(C(=O)OCC(=O)c3ccc(Cl)c([N+](=O)[O-])c3)c2c1
2.8,i,CSC1=C(C#N)C(c2ccccc2C)C(C#N)=C(N)N1 (stereo not drawn)
0.84,i,Cc1nc(-c2cccc(NC(=O)C(C)Oc3ccccc3)c2)cs1 (stereo not drawn)
0.15,i,Cc1ccc(-n2ccc(=O)c(C(=O)O)n2)cc1
-0.21,i,COc1ccc(-n2cc(CNCCc3cscn3)c(-c3ccccc3Cl)n2)cc1
0.21,i,COc1cc2cc(CN(CCc3ccccc3C)C(=S)NCCCN3CCOCC3)c(=O)[nH]c2cc1OC
-0.57,i,O=C(Nc1ccc2nc(-c3cccnc3)[nH]c2c1)c1ccccc1F
0.34,i,CC1=C(C(=O)OC2CCCCC2)C(c2ccc(C)o2)C2=C(CC(C)(C)CC2=O)N1 (stereo not drawn)
1.28,i,O=C(NC1CCCCC1)c1cc(Cl)nc2ccccc12
-0.03,i,N#Cc1c(N)sc2c1CCN(CCc1ccccc1)C2
0.03,i,CCc1cccc(NC(=O)CN(C)S(=O)(=O)c2cccc3nsnc23)c1
0.21,i,CCN(Cc1ccccc1)Cc1nnnn1Cc1ccccc1
0.75,i,O=C(O)C(Cc1ccccc1-c1ccccc1)C(=O)O
-0.54,i,Cc1ccc(NC(=O)C(c2ccc(Cl)cc2)N2CCOCC2)cc1 (stereo not drawn)
1.12,i,CCN1CCN(CC(O)COCc2ccccc2)CC1 (stereo not drawn)
-1,i,O=C(Nc1ccc2c(c1)OCCO2)C1CCN(C(=O)c2ccc(F)cc2)CC1
-1.34,i,Cc1cccc(CCNS(=O)(=O)c2ccc3c(c2)NC(=O)C(C)S3)c1 (stereo not drawn)
-0.64,i,C/C(=N\Nc1ccc(F)cc1)c1ccc(N2CCOCC2)c(F)c1
-0.5,i,CCOC(=O)Cn1c(=O)c2c(nc3n2CCS3)n(C)c1=O
0.03,i,CC(C)(C)NC(=O)C(c1cccs1)N(CC1CCCO1)C(=O)c1ccc(-c2ccccc2)[nH]1 (stereo not drawn)
-0.17,i,CSCC[C@H](NC(=O)c1ccc(Br)o1)c1nnc2ccccn12
0.03,i,CCN(N=O)[C@@H](Cc1ccccc1)CN(N=O)[C@@H](Cc1ccccc1)CN(C)N=O
0.51,i,O=S1(=O)CCN2C(Cc3ccc(SC(F)F)cc3)=CSC2=N1
0.54,i,Cc1cccc(OC(C)C(=O)N2CCc3ccccc3C2)c1 (stereo not drawn)
-0.01,i,CC(C)S(=O)(=O)C/C(N)=N/OC(=O)c1cc(Cl)cc(Cl)c1
-2.98,i,COc1ccc(C)cc1NC(=O)CN(C)S(=O)(=O)c1cc(C)ccc1OC

# From PubChem
